Resorufin fluor = compound fluoresces in the resorufin spectral region | max dye-equivalent concentration, M | AID 588 | 59,000 tested, 0.04% active | Compound fluorescence, resorufin region 547/598 nm, buffer; hits give high values; active = above 10 nM dye equivalent; inconclusive = 1 to 10 nM; inactive = 1 nM or less; a few of its hits are not listed in these tables; further: highest value over a series up to 38 µM
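Tris 100 mM pH 8.0; compound added, 15 min RT; CCD imager read, ex 547 nm/em 598 nm; signal normalized to resorufin standard curve (six concentrations per plate) as dye-equivalent concentration.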
A488 fluor = A488 region autofluorescence; compound autofluorescence, A488 spectral region, dye equivalency; hits give high values; max dye equivalency, M; 59,000 tested, 0.1% active; AID 591; active = above 10 nM dye equivalent; inconclusive = 1 to 10 nM; inactive = 1 nM or less; about half of its hits are not listed in these tables;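 further: highest value over a series up to 38 µM; compound alone in buffer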
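Compound autofluorescence was read in 100 mM Tris pH 8.0 after 15 min at room temperature, ex 480 nm/em 540 nm. Intensities were converted to A488 dye-equivalent concentration using an on-plate six-point A488 standard curve.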
A647 fluor = A647 region autofluorescence; Compound fluorescence, A647 channel (570/671 nm), Tris buffer; max dye-equivalent concentration, M; 59,000 tested, under 10 active; active means above 1 µM dye equivalent; inconclusive means 0.1 to 1 µM; inactive means 0.1 µM or less;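 further: values scaled relative to a standard on each plate; highest value over a series up to 38 µM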
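Compound fluorescence was measured in 100 mM Tris buffer, pH 8.0, after 15 min at room temperature, using 570 nm excitation and 671 nm emission filters. Signal was normalized to a per-plate Alexa 647 standard curve and expressed as dye-equivalent concentration at each compound concentration.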
AID923 = qHTS Assay for Allosteric/Competitive Inhibitors of Caspase-1: Spectroscopic Profiling in AFC Spectral Region; compound fluorescence, AFC spectral region (405/520 nm); almost no hit is shown here; Potency, µM (highest dose often 57.5 µM), for inactives: at the top dose fluorescence increase, usual class: activators; 75,000 tested, 1.1% active; AID 923, 2007; active means well fitted activation curve with a large enough effect; inconclusive means small, poorly fitted or top-dose-only effect;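 further: potency means the concentration at half of the fitted maximal effect; 0% is about no effect; scaled to a free AFC standard on each plate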
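Baseline compound fluorescence (AFC region, 405 nm ex/520 nm em) taken from the intercept of kinetic reads with 50 nM caspase-1 and 5 uM Ac-WEHD-AFC; normalized to an on-plate AFC standard curve; compounds titrated up to 57 uM.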
TSHR agonist = activates the human thyroid stimulating hormone receptor | P16473 | HEK293-CNG-TSHR cells (CNG channel as cAMP sensor), membrane potential dye, cAMP | Potency, µM (top dose mostly 57.1 µM), without a hit: top-dose activation, usual class: activators | 73,000 tested, 0.48% active; active = well fitted activation curve of enough size with the parental cells flat; inconclusive = any curve in the parental cells; inactive = parental cells flat and receptor cells flat or falling; further: potency means the concentration at half of the fitted maximal effect; % of control where 0% means no effect; weak receptor curves with flat parental cells got no call and are not listed
Target sequence (P16473 whole entry, looked up): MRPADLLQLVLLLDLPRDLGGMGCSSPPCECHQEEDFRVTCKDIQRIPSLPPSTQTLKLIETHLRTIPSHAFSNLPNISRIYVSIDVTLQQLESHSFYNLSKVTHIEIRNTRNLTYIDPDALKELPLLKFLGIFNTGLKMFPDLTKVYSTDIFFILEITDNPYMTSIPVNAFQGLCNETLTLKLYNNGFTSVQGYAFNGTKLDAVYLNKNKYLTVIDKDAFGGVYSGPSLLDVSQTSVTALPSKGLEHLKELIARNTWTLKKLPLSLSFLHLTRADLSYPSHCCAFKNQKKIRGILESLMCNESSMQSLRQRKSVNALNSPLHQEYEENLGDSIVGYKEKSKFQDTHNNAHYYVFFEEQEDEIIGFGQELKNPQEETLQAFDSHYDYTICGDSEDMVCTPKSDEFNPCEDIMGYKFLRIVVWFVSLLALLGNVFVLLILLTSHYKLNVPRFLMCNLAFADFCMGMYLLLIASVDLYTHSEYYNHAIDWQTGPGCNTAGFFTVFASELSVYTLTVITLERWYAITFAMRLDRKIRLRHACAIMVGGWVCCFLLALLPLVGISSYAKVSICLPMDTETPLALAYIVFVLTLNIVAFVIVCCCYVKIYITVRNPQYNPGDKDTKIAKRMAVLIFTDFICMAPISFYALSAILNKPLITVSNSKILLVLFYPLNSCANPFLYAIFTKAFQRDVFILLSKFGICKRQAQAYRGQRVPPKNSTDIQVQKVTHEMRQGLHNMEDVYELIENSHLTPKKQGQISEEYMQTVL
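cAMP rise detected as CNG-channel membrane depolarization by fluorescent dye (emission 590 nm), 30 min after compound, following 60 min dye loading containing 100 uM RO 20-1724 at room temperature. Cells: TSHR/CNG HEK 293, with parental CNG HEK 293 as control.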
* marks the source's active call; other numbers are inactive results; i = inactive; ? = inconclusive; · = not tested or not shown; [ ] = another dose, or the depositor's remark. This is a subset; count on the stated rates, not on these rows.

SMILES	Resorufin fluor	A488 fluor	A647 fluor	AID923	TSHR agonist
COc1ccc(C(=O)c2coc3ccc(O)c(CN4CCCCC4)c23)cc1	·	·	·	-1.6%	20%
COC(=O)c1ccccc1NC(=O)n1cc(C)cn1	i	i	2.2e-08	2.3%	2%
CCCc1cc(=O)n2c(nc3ccccc32)[nH]1	i	i	5.9e-09	-1.6%	-4%
COC(=O)c1ccc(C2/C(=C(/O)c3ccc(OC)cc3)C(=O)C(=O)N2CC2CCCO2)cc1 (stereo not drawn)	i	i	1e-09	-0.3%	?
Cc1cc(C(=O)NCc2ccc(S(N)(=O)=O)cc2)cs1	i	i	1.7e-08	-0.1%	9%
N#CCCN(C(=O)CN1C(=O)NC2(CCCC2)C1=O)c1ccccc1F	i	i	4.7e-09	-0.6%	5%
CC(=O)C1(C)OC(N)=C(C#N)C(c2ccccc2)C1(C#N)C#N (stereo not drawn)	i	i	3.2e-09	·	·
COCCn1nnnc1C(c1cc2ccc(OC)cc2[nH]c1=O)N1CCc2ccccc2C1 (stereo not drawn)	i	i	5.8e-09	8.0%	-2%
COC(=O)C(NC(=O)c1ccc(F)cc1)(Nc1nc(C)cs1)C(F)(F)F (stereo not drawn)	i	i	1e-09	·	·
CCC(=O)n1nc(-c2ccc(OC)cc2)nc1N	i	i	2.8e-08	-0.3%	1%
CCOc1ccc(-c2nnn(CC(=O)Nc3cc(OC)ccc3OC)n2)cc1OCC	i	i	4e-09	1.0%	·
COc1cc(-c2c(C#N)c(N)nc3c2CCCC3)cc(OC)c1OC	i	i	4.3e-08	9.6%	21%
C/C=C/OC(=O)NC(c1ccccc1)[C@]1(C(C)=O)CCCC1=O (stereo partly drawn)	·	·	·	-3.7%[11.5 µM]	1%[11.4 µM]
CC1=C(C(N)=O)C(c2ccccn2)n2nc(SCc3ccccc3Cl)nc2N1 (stereo not drawn)	i	i	3.6e-08	-1.3%	·
c1csc(-c2nnsc2-c2nc3ccccc3[nH]2)c1	i	i	4.6e-08	0.1%	?
CNc1nc(C)nc(-n2nc(C)cc2C)n1	i	i	1e-09	0.6%	4%
CCOC(=O)C1=C(c2ccccc2)Nc2ncnn2C1c1cc(OC)cc(OC)c1OC (stereo not drawn)	i	i	3.4e-08	1.3%	0%
CCN1CCCC1CNS(=O)(=O)c1cc(Br)cc2c1N(C(=O)C1CC1)CC2 (stereo not drawn)	i	i	3.4e-09	1.4%	8%[11.4 µM]
Cc1ccc(C(=O)Nc2cccc(C(=O)O)c2)cc1S(=O)(=O)N1CCCCC1	·	·	·	0.6%	0%[11.4 µM]
CCOC(=O)C1(C)NC(c2cc(OC)c(OC)c(OC)c2)C2C(=O)N(CC)C(=O)C21 (stereo not drawn)	i	i	1.3e-08	-0.3%	-1%
CCCCC(=O)Nc1cccc(NC(=O)c2ccc(Br)o2)c1	i	i	3.1e-08	0.3%	·
N=c1ccn2c(n1)O[C@H]1[C@H](O)[C@@H](CO)O[C@H]12	i	i	1.4e-08	·	3%
Cc1occc1C(=O)Nc1cc(C(F)(F)F)ccc1Cl	i	i	2.7e-08	-2.4%	?
O=C(COn1nnc2ccc(C(F)(F)F)cc21)Nc1nnc(-c2ccccc2)o1	i	i	2.5e-08	1.4%	2%
N#C/C(=N\O)c1nc(-c2ccccc2)cs1	i	i	1.2e-08	·	·
COc1cccc(C2=NOC(C(=O)Nc3cccnc3)C2)c1 (stereo not drawn)	i	i	1e-09	-0.3%	7%
CC1CN(c2oc(-c3cccs3)nc2C#N)CC(C)O1 (stereo not drawn)	i	i	1e-09	·	·
COc1ccc(-c2cc(C(=O)Nc3c(C)nn(Cc4ccc(Cl)cc4)c3C)no2)cc1	i	i	2.1e-08	2.7%	9%
CC(=O)N(CC(C)(C)CC=C(C)C)c1ccccc1	i	i	1e-09	0.2%	·
Cc1onc(-c2c(F)cccc2Cl)c1C(=O)N1CCCc2ccccc21	i	i	2.9e-08	-0.9%	?
COc1ccc(S(=O)(=O)N(CC(=O)NCc2ccco2)c2ccccc2)cc1OC	i	i	1.4e-08	0.1%	11%
O=C(O)c1ccc(COc2ccc(Cl)cc2)o1	i	i	2.7e-08	-2.1%	9%
CCOC(=O)c1nn(-c2ccccc2)c(C#N)c1NC(=O)c1nn(CC)cc1Br	i	i	2e-08	-1.8%	9%
CN1CCC2(CC1)NC(=O)NC2=O	i	i	1.4e-09	2.6%	-3%
C=CCC(O)(CCN1CCCCC1)c1ccccc1 (stereo not drawn)	i	i	1e-09	-1.2%	4%[11.4 µM]
Cc1ccc(SCCC(=O)N2CCCC2)cc1	i	i	2.4e-08	-0.6%	-6%
CCCC(=O)NC(C)C(c1cccs1)N1CCN(c2ccccc2)CC1 (stereo not drawn)	i	i	3.8e-08	-1.3%	-3%
CCOC(=O)COc1ccc(S(=O)(=O)NCc2ccncc2)cc1	i	i	5.9e-09	2.1%	?
CCCS(=O)(=O)N1CCCC(C(=O)NCCCN2CCN(c3ccc(F)cc3)CC2)C1 (stereo not drawn)	i	i	1e-09	0.4%	?
O=C1C=C[C@@H](O)[C@H]2[C@@H]3C(=O)N(Cc4ccccc4)C(=O)[C@@H]3CC[C@H]12	·	·	·	-2.8%[11.5 µM]	-1%[11.4 µM]
CCNc1nc(C)c2cc(Br)c(=O)n(CC)c2n1	·	·	·	2.2%	1%
Cc1sc2nc(SCC(=O)Nc3c(C)n(C)n(-c4ccccc4)c3=O)n(C)c(=O)c2c1C	i	i	2.4e-08	1.2%	2%
COC(=O)[C@@]1(Cc2ccccc2)[C@H]2c3cc(C(=O)N4CCCC4)n(Cc4ccc(S(C)(=O)=O)cc4)c3C[C@H]2CN1C(=O)c1ccccc1	·	·	·	1.3%	?
N#Cc1nc(COc2ccc(Br)cc2)oc1N1CCCC1	i	i	1e-09	·	·
CCOC(=O)C1CCN(C(=O)Cn2cc(C#N)c3ccccc32)CC1	i	i	1e-09	0.4%	-23%
Cc1ccc(Cn2ccc(NC(=O)c3cc(-c4cccs4)on3)n2)cc1	i	i	1.3e-09	0.3%	·
CCOc1ccc(C(=O)Nc2c(C(N)=O)oc3ccccc23)cc1	i	i	3.5e-08	0.4%	1%[11.4 µM]
CC1CCCC(C(=O)OCc2ccccc2)N1 (stereo not drawn)	i	i	3.1e-08	1.6%	·
c1ccc(Cn2ncc3c2ncn2nc(-c4ccncc4)nc32)cc1	i	i	1e-09	0.6%	2%
N#Cc1c(NCCCO)nc(-c2ccccc2)c2c1CCCC2	i	i	6.7e-08	·	·
CC(=NCc1ccccc1)C1=C(O)COC1=O	·	·	·	1.8%	-4%
Cn1c(=O)c2c(SCC(=O)N3CCCc4ccccc43)nc(C3CC3)nc2n(C)c1=O	·	·	·	-1.4%	?
O=C(c1cnccn1)N1CCC[C@@]2(CCN(Cc3ccncc3)C2)C1	i	i	1e-08	1.0%	?
Cc1nnc(NC(=O)CSc2nc3c(c(=O)n2CCc2ccccc2)SC(C)C3)s1 (stereo not drawn)	·	·	·	6.0%	23%
COc1ccc(-c2cc(C(=O)NCCc3ccccc3)no2)cc1OC	i	i	1.7e-09	0.6%	3%[11.4 µM]
CCCC(c1nnnn1C(C)(C)CC)N(CCCO)Cc1cc2cc(C)cc(C)c2[nH]c1=O (stereo not drawn)	i	i	5.2e-09	-2.4%	?
COc1ccc(OC)c(C(C)NC(C)=O)c1 (stereo not drawn)	·	·	·	-0.3%	1%[11.4 µM]
Cc1cc(=O)oc2c(N)c(O)ccc12	·	·	·	2.4%	-4%
CC(C)(C)C(=O)NC(C(N)=O)=C(Cl)Cl	·	·	·	-2.3%	2%
Cc1cnc(CNc2ncnc3ccc(-c4ccccc4CN(C)C)cc23)cn1	i	i	4.7e-08	-1.2%	9%
The results go on:
SMILES	Resorufin fluor	A488 fluor	A647 fluor	AID923	TSHR agonist
CC(C)OCCCn1c(=N)c(C(N)=S)cc2c(=O)n3ccccc3nc21	i	i	7.9e-09	·	·
COc1ccc(S(=O)(=O)N2CCCC2C(=O)Nc2nccs2)cc1 (stereo not drawn)	i	i	1e-09	0.2%	9%
CCN(CC)S(=O)(=O)c1ccc2oc(C(=O)N3CCCCCC3)c(C)c2c1	i	i	1.3e-08	-2.6%	?
COc1cccc(-n2c(C)nc3c(cnn3-c3ccc(Cl)cc3)c2=O)c1	i	i	1e-09	0.6%	?
NC(=O)C1CCN(C(=O)CN2CCc3ccccc32)CC1	i	i	3.5e-08	1.1%	0%
CCN(CC)S(=O)(=O)c1ccc(NC(=O)Cn2c(=O)oc3ccccc32)cc1	i	i	1e-09	1.6%	-4%
CCOC(=O)C1CCN(C(C(=O)Nc2ccc3c(c2)OCCO3)c2ccccc2)CC1 (stereo not drawn)	i	i	1.7e-08	-0.2%	?
O=C1c2c(O)cccc2Cc2cccc(O)c21	·	·	·	-0.9%	?
CN1CCc2ccccc2C1C1CCNCC1 (stereo not drawn)	i	i	3.2e-08	-0.3%	-1%
O=C1CC(N2CCOCC2)C(=O)N1c1cccc(Cl)c1 (stereo not drawn)	·	·	·	-0.3%	0%
Cc1ccc(C(C)C)c(OCCn2c(=O)oc3ccccc32)c1	i	i	3.5e-08	0.1%	·
CC1C=CCC2C(=O)N(c3cccc(C(=O)N4CCN(c5ccc(F)cc5)CC4)c3)C(=O)C12 (stereo not drawn)	i	i	2.5e-08	2.4%	-6%[11.4 µM]
Cc1ccc(C)c(S(=O)(=O)C(C#N)c2nc3ccccc3nc2N2CC(C)OC(C)C2)c1 (stereo not drawn)	i	i	1.7e-08	10%	-13%
C=CCOc1ccc2c(c1)c(S(=O)(=O)c1ccc(C)cc1)cn2COC	i	i	7e-09	-0.7%	4%
COc1cccc(C2C(C(=O)OC(C)C)=C(C)Nc3ncnn32)c1 (stereo not drawn)	i	i	1.6e-08	-0.4%	1%
N#C/C(=C\Nc1ccc2c(c1)OCCO2)c1nc2ccccc2[nH]1	i	i	3.8e-09	11%	-13%
CCOC(=O)[C@H](CCc1ccccc1)N[C@@H](C)C(=O)N1[C@H](C(=O)O)C[C@H]2CCC[C@@H]21	i	i	2.6e-08	1.8%[25.7 µM]	-2%[25.6 µM]
Nc1nc(NCCc2ccc(O)cc2)nc2nc(-c3ccco3)nn12	·	·	·	0.7%	9%
CCCCC(C(=O)O)C(C)CC(=O)Nc1ccn(-c2ccccc2)n1 (stereo not drawn)	i	i	5.7e-09	-0.6%	11%
COc1ccc(-n2nnnc2SCC(=O)c2ccc3c(c2)OCCO3)c(OC)c1	i	i	1.5e-08	-0.1%	?
CC(=O)NC(Cc1ccc(F)cc1)C(=O)NC1CCN(c2nnnn2-c2ccccc2)CC1 (stereo not drawn)	i	i	2.9e-08	-2.1%	-4%
CCOc1ccc(C2C(C(=O)O)c3ccccc3C(=O)N2CCN2CCOCC2)cc1 (stereo not drawn)	i	i	1e-09	2.2%	0%
Cn1c(=O)c2c(nc(CN3CCCCC3)n2CCc2ccccc2)n(C)c1=O	i	i	2.2e-08	-0.1%	?

Molecules above containing bromine:
SMILES	Resorufin fluor	A488 fluor	A647 fluor	AID923	TSHR agonist
CCN1CCCC1CNS(=O)(=O)c1cc(Br)cc2c1N(C(=O)C1CC1)CC2 (stereo not drawn)	i	i	3.4e-09	1.4%	8%[11.4 µM]
CCCCC(=O)Nc1cccc(NC(=O)c2ccc(Br)o2)c1	i	i	3.1e-08	0.3%	·
CCOC(=O)c1nn(-c2ccccc2)c(C#N)c1NC(=O)c1nn(CC)cc1Br	i	i	2e-08	-1.8%	9%
CCNc1nc(C)c2cc(Br)c(=O)n(CC)c2n1	·	·	·	2.2%	1%
N#Cc1nc(COc2ccc(Br)cc2)oc1N1CCCC1	i	i	1e-09	·	·
